High-throughput results (PubChem BioAssay)
CtBP-E1A blk = CtBP/E1A binding inhibition; 340,000 tested, 0.49% active; AID 651724; activity change, % (concentration not given with the values); AlphaScreen GST-E1A/His-CtBP binding, 1536-well; hits give low values; control for the full effect not named in the record; in the data active means activity change below about -65%; inconclusive means about -30% to -65%; inactive means above about -30%; further: on the % scale 0 is the no-effect control and ±100 the full control effect
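GST-E1A and His-tagged CtBP (125 nM each as 5X stock) were preincubated with pin-transferred compound for 2 h at 37 °C in the dark, then glutathione donor and nickel acceptor beads were added for 1 h before AlphaScreen reading.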
PINK1 modulator = modulators of PINK1 expression; Potency, µM (titrated, usually from 76.6 µM), inactives show top-dose activation (PINK1 increase), most hits filed as activators; 410,000 tested, 0.2% active; PINK1 immunofluorescence, high-content cytometry, 24 h; AID 624263; active = well fitted activation curve with a large enough effect; inconclusive = small, poorly fitted or top-dose-only effect; inactive = flat fitted curve, though single readings scatter; cell line not stated here;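 further: potency means the concentration at half of the fitted maximal effect; % of control where 0% means no effect; nearly all actives have a fitted effect of over 65% in size; a mitochondrial uncoupler was the plate control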
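Stable cell line, 250 cells/well, 12 h attachment; compounds pinned at 5 concentrations, 24 h; CCCP control. Fixed with nuclear dye, primary antibodies 12 h at 10 degrees C, secondary plus cell stain; laser-scanning cytometer read.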
Six1-Eya2 inh = Six1/Eya2 interaction inhibition; Q15475+O00167; AlphaScreen GST-Six1/His-Eya2 binding, biochemical; hits give low values; control for the full effect not named in the record; activity change, % (concentration not given with the values); 360,000 tested, 0.56% active; AID 651725; in the data active = activity change below about -65%; inconclusive = about -30% to -65%; inactive = above about -30%; further: on the % scale 0 is the no-effect control and ±100 the full control effect
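GST-Six1 + His-Eya2 (5X stock: 250/500 nM); Tris pH 8.0, 300 mM NaCl, 0.05% BSA, 0.02% Tween 20; GSH donor/Ni acceptor beads; 1 h 37 °C dark; AlphaScreen readout.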
TRPML1 agonist = activates the human TRPML1 channel. TRPML1-expressing cells, Ca2+ dye fluorescence, FDSS; host cell line not named in the record; reference of the full effect not given here. activation, % (test concentration not listed). 410,000 tested, 0.12% active. AID 624414; in the data active = activation above about 50%; inconclusive = about 30% to 50%; inactive = below about 30%; further: 0% is about no effect; the text of the record puts the active cut at 80%
Target sequence (Q9GZU1 whole entry, looked up): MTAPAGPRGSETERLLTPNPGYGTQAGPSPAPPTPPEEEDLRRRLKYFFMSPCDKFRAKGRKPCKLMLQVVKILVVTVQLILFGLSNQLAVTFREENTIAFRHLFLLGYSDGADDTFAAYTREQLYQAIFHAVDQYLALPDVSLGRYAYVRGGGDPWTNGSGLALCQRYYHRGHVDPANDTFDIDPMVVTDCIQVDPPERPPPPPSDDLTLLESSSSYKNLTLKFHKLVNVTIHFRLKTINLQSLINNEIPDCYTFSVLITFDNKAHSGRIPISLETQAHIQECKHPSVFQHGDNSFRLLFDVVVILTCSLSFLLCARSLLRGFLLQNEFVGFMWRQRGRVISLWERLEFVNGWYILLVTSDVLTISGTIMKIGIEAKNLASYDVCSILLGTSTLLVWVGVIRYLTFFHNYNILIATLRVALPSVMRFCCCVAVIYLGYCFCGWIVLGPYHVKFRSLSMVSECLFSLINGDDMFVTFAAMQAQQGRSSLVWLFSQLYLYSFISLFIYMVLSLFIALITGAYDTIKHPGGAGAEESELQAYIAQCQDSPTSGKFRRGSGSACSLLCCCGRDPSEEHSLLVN
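In this qHTS format, compounds were pin-transferred onto Ca8-dye-loaded TRPML1-DL cells induced with Tet overnight, and intracellular Ca2+ fluorescence was recorded kinetically for 110 s after a 10 s baseline. A subsequent 4uM final 54-4 (EC80) addition followed by a second 110 s read served as the antagonist phase.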
D2 potentiator = potentiates the human D2 dopamine receptor allosterically | 360,000 tested, 0.23% active | DiscoveRx D2 beta-arrestin cells, luminescence, 90 min; 100% = 57 uM dopamine signal | potentiation, % (concentration not given with the values) | P14416 | AID 624464; active = potentiation of 50% or more; inconclusive = 30% to 50%; inactive = 30% or less;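 further: compound concentration not given in the record; tested on top of an EC20 dose of dopamine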
Target sequence (P14416 whole entry, looked up): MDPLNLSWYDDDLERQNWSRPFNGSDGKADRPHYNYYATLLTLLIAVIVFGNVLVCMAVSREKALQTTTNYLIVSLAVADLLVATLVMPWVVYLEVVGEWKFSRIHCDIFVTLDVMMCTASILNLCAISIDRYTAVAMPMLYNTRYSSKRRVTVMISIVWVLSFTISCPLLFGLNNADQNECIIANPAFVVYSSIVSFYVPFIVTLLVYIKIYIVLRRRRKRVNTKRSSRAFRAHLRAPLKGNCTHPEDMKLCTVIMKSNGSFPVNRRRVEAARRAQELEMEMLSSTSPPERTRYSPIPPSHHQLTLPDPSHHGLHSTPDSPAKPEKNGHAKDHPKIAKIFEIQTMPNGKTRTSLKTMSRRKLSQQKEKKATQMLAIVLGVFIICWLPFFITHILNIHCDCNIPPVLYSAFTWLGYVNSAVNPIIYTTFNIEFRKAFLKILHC
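PathHunter beta-arrestin assay in DiscoveRx D2 cells. Compounds were added with an EC20 of dopamine (50 nM final) for 90 min at 37 deg C. Luminescence was read 1 h after detection reagent, with 57 uM dopamine as the EC100 control.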
D2 agonist = human D2 receptor agonism in beta-arrestin assay; AID 624465; 360,000 tested, 0.084% active; P14416; activation, % (no concentration beside the values); DiscoveRx PathHunter D2 beta-arrestin, luminescence, 90 min; 100% = 57 uM dopamine signal; in the data active = activation above about 40%; inconclusive = about 15% to 40%; inactive = below about 15%; further: compound concentration not given in the record; the text of the record calls up to 30% inactive
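Agonist mode: compounds alone added to overnight-plated D2 PathHunter cells for 90 min at 37 C, with 57 uM final dopamine (EC100) defining full response. Beta-arrestin recruitment detected by chemiluminescent reagent, read after 1 h at ambient temperature.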
* marks the source's active call; other numbers are inactive results; ? = inconclusive; . = no result given; [ ] = dose if it differs, or a comment.

SMILES	CtBP-E1A blk	PINK1 modulator	Six1-Eya2 inh	TRPML1 agonist	D2 potentiator	D2 agonist
CC(Oc1cc2oc(=O)c3c(c2cc1Cl)CCCC3)C(=O)NCc1cccnc1 (configuration not stated)	0	0.3%	-3	-0.9	2	-1.1
COc1ccccc1NC(=O)CCn1c(=O)c2cccn2c2ccccc21	.	0.6%	2	1.1	-3	-3.8
CCc1cc(=O)oc2cc(C)cc(OC(C)C(=O)NC3CC(C)(C)NC(C)(C)C3)c12 (configuration not stated)	.	-0.2%	2	-1.4	-11	-1.8
CN(C)CCN[C@H]1CCC2C3CC=C4C[C@@H](O)CC[C@]4(C)C3CC[C@@]21C (some centres not stated)	6	0.1%	2	0.3	-20	-2.7
Cc1nn(-c2ccccc2)c(N)c1C(O)(C(F)(F)F)C(F)(F)F	9	-1.2%	12	-0.1	-4	-2.9
COC(=O)C1NN=C(C(=O)c2ccc(Br)cc2)C1c1cccc(Br)c1 (configuration not stated)	0	4.5%	-8	1.1	-42	-10
CC(=O)OC1CSC2c3ccccc3C(=O)N2Cc2sccc21 (configuration not stated)	?	3.1%	4	0.0	-4	-4.1
CO/N=C/c1c(-c2ccc(Cl)cc2)nc2cc(C)ccn12	11	2.1%	27	-0.2	-9	1.5
COc1ccc(C(c2c(C)n(C)n(-c3ccccc3)c2=O)c2c(C)n(C)n(-c3ccccc3)c2=O)cc1	2	7.9%	-8	-0.1	-14	-4.2
c1ccc(-c2nc(NCC3CC3)nc3ccsc23)cc1	70	3.5%	38	-0.4	-3	-3.7
CC(C)(C)C(=O)Nc1c2c(nn1-c1cccc(Cl)c1)CS(=O)(=O)C2	0	-0.6%	0	.	-1	3.8
COCc1nnc(NC(=O)CCc2ccc(OC)cc2)s1	10	0.0%	10	0.6	-3	-0.4
CCc1ccc(C(=O)OCC(=O)NCC(F)(F)F)cc1	-11	2.4%	-5	0.3	8	-0.7
Clc1cc(Cl)cc(CN2CCSCC2)c1	.	2.6%	4	-0.6	-19	-2.5
COc1cccc(NC(=O)Cc2nnc(SCC(=O)NC(C)c3ccccc3)n2C)c1 (configuration not stated)	-1	1.6%[38.3 µM]	-1	-0.8	-2	-0.2
Cc1ccc(CCNC(=O)C2CCC(=O)N(Cc3ccccc3F)C2)o1 (configuration not stated)	0	0.1%	-4	-0.6	-4	-5.2
COc1ccccc1Oc1ccc(N/C=C2/CCCC2=O)cc1	0	13%	-7	2.3	-9	-1.6
COC(=O)c1ccc2nc(-c3ccc(F)cc3)c(Cc3ccc(OC)cc3C)n2c1	8	1.6%	5	-0.5	-6	-2.3
CC(=O)c1cnc2cc(-c3ccccc3)nn2c1C	5	.	4	0.3	6	-3.5
CCCc1nnc(NC(=O)CCS(=O)(=O)Cc2ccccc2)s1	-5	1.9%	8	0.9	-1	0.8
COc1ccc(-c2nn(-c3ccccc3)cc2/C=N/Nc2ccc(S(N)(=O)=O)cc2[N+](=O)[O-])cc1OC	-13	-0.4%	-8	1.5	0	-0.6
O=C(Nc1ccc(S(=O)(=O)N2CCOCC2)cc1)c1ccc(Cl)cc1Cl	.	1.6%	3	0.7	-2	-0.9
CCSC1=NCCN1S(=O)(=O)c1ccc(F)cc1	1	5.0%	1	-0.4	-3	1.9
c1cc2c(cc1Oc1nc(N3CCOCC3)nc(N3CCOCC3)n1)OCO2	-1	-0.8%	-7	-0.1	-17	-1.0
CCOc1cc(OCC)cc(C(=O)NC(=S)Nc2cccc(C(F)(F)F)c2)c1	4	-2.5%	5	0.1	10	0.4
Cc1cccc(N(CC(=O)NC2CC2)S(=O)(=O)c2ccc(Cl)cc2)c1	11	1.2%	1	-0.6	-17	-0.4
COc1ccccc1C(=O)Nc1ccc2c(c1)CN(C(=O)CSC)CC2	-5	4.5%	-4	0.1	0	3.5
Cc1c(NS(=O)(=O)c2ccc([N+](=O)[O-])cc2)c(=O)n(-c2ccccc2)n1C	-10	-0.5%	-6	0.5	4	0.9
CC(=O)Oc1ccc2c(=O)c(/C=N/c3cc(=O)[nH]c(=S)[nH]3)coc2c1	-4	2.3%	-75*	-0.4	-9	-2.8
COc1cccc(C(=O)Nc2cc3c4c(c2)CC(=O)N4CCC3)c1	-6	28%	-17	0.0	-17	-5.6

Ten structures out of the list, ordered by heavy-atom count, lowest first.
SMILES	CtBP-E1A blk	PINK1 modulator	Six1-Eya2 inh	TRPML1 agonist	D2 potentiator	D2 agonist
CCSC1=NCCN1S(=O)(=O)c1ccc(F)cc1	1	5.0%	1	-0.4	-3	1.9
CC(=O)c1cnc2cc(-c3ccccc3)nn2c1C	5	.	4	0.3	6	-3.5
COc1ccccc1Oc1ccc(N/C=C2/CCCC2=O)cc1	0	13%	-7	2.3	-9	-1.6
COc1cccc(C(=O)Nc2cc3c4c(c2)CC(=O)N4CCC3)c1	-6	28%	-17	0.0	-17	-5.6
Cc1cccc(N(CC(=O)NC2CC2)S(=O)(=O)c2ccc(Cl)cc2)c1	11	1.2%	1	-0.6	-17	-0.4
COc1ccccc1C(=O)Nc1ccc2c(c1)CN(C(=O)CSC)CC2	-5	4.5%	-4	0.1	0	3.5
Cc1c(NS(=O)(=O)c2ccc([N+](=O)[O-])cc2)c(=O)n(-c2ccccc2)n1C	-10	-0.5%	-6	0.5	4	0.9
c1cc2c(cc1Oc1nc(N3CCOCC3)nc(N3CCOCC3)n1)OCO2	-1	-0.8%	-7	-0.1	-17	-1.0
COC(=O)c1ccc2nc(-c3ccc(F)cc3)c(Cc3ccc(OC)cc3C)n2c1	8	1.6%	5	-0.5	-6	-2.3
COc1ccc(-c2nn(-c3ccccc3)cc2/C=N/Nc2ccc(S(N)(=O)=O)cc2[N+](=O)[O-])cc1OC	-13	-0.4%	-8	1.5	0	-0.6

(further entries)
SMILES	CtBP-E1A blk	PINK1 modulator	Six1-Eya2 inh	TRPML1 agonist	D2 potentiator	D2 agonist
O=C(NCC(=O)N1CCN(c2ccccn2)CC1)c1ccc(Br)o1	1	1.3%	4	0.7	1	0.2
CC(=O)N(CCC(Cc1ccccc1)c1ccc2c(c1)OCO2)Cc1ccc(Cl)cc1 (configuration not stated)	0	?	-6	1.8	-7	-5.5
Cc1cccc(C)c1NC(=O)C1c2ccccc2OCC(=O)N1Cc1ccc2c(c1)OCO2 (configuration not stated)	2	-0.1%	6	-1.1	.	.
Cc1n[nH]c(C)c1S(=O)(=O)N1CCCC(C(=O)NCc2ccccc2Cl)C1 (configuration not stated)	1	2.4%	-5	1.2	1	-0.4
Cc1cccc(C(=O)NCC(=O)N2CCN(c3ccc(Cl)cc3)CC2)c1	0	1.0%	-12	-0.3	-18	9.2
Cc1ccc(OCCN2CCN(c3ncnc4sc(C)c(C)c34)CC2)cc1	-19	-1.0%	-19	1.8	-22	-1.9
Cc1ccc(C23CC4CC(CC(NC(=O)N5CCN(C)CC5)(C4)C2)C3)cc1	1	2.3%	-2	0.1	-12	-1.3
CCOc1ccc(C2/C(=C(/O)c3ccc(F)cc3)C(=O)C(=O)N2CCCN(C)C)cc1 (configuration not stated)	5	2.3%	5	-1.0	-2	-0.8
CN1/C(=C\C(=S)NC(=O)c2ccccc2Cl)C(C)(C)c2ccccc21	-28	7.3%	?	1.8	-37	-3.6
COc1ccc(Cl)cc1NC(=O)COC(=O)C1CCCCC1	13	1.8%	17	1.9	-2	3.2
C[C@@H]1CN([C@H](C)CO)S(=O)(=O)c2ccc(Br)cc2O[C@H]1CN(C)C(=O)Nc1ccccc1	4	2.8%	0	0.7	5	-1.3
COc1ccc(N2C(=O)C(Cl)=C(N3CCCC3)C2=O)cc1	-12	0.8%	3	2.5	-7	-3.1
CCOc1ccc(OC(=O)c2cccnc2)cc1	3	-1.5%	3	1.6	5	0.3
O=[N+]([O-])c1ccc2nnn(O)c2c1	0	0.6%	12	-0.1	-28	-6.1
COc1ccccc1C(=O)NCCSCc1ccccc1Cl	1	1.8%	-14	1.4	-5	0.2
CC(C)Cc1cc(CNC(=O)C2CCC(=O)N(Cc3cccc(C(F)(F)F)c3)C2)on1 (configuration not stated)	8	2.0%	4	0.4	5	-0.4
COc1ccc(CN(C(=O)c2cccc(OC)c2)C2CCS(=O)(=O)C2)cc1 (configuration not stated)	6	0.1%	-6	-0.6	-8	1.2
O=S(=O)(c1ccc(F)cc1)N1CCn2c(nc3ccccc32)C1	0	3.4%	-2	-0.5	-4	-5.4
COc1ccc(-c2cc(C)nc(SCc3cccc(C(=O)O)c3)n2)cc1	-13	2.9%	-25	-0.1	-4	-2.4
O=C(CNC(=O)N1CC(=O)Nc2ccccc21)Nc1ccccc1	.	1.0%	4	-0.4	3	2.2
O=S(=O)(Cc1noc(-c2ccc(Cl)cc2)n1)Cc1ccco1	-7	-1.8%	-18	1.3	-2	-4.3
Cc1noc(C)c1S(=O)(=O)N1CCC(C(=O)N2CCN(c3ccccc3Cl)CC2)CC1	3	-0.7%	1	0.0	-17	1.1
CCN(CC(=O)Nc1ccc(C(C)=O)cc1)CC(=O)Nc1ccccc1C(F)(F)F	0	-1.1%	2	-0.2	-1	-1.9
CC(C)NC(=O)c1cc2ccccc2o1	15	-0.4%	5	-0.1	-3	-2.2
O=C(COC(=O)c1cc([N+](=O)[O-])ccc1N1CCOCC1)c1ccc(F)cc1	.	3.2%	-18	-1.6	-6	-2.0
Cc1cc(Nc2cccc(C)c2C)n2nc(C)nc2n1	-7	2.3%	5	0.7	-1	1.1
O=c1c2ccccc2nc(SCc2nnc(-c3ccccc3Br)o2)n1Cc1ccco1	7	1.3%[38.3 µM]	-9	1.7	-1	-0.5
CCOc1cc(C)nc(Oc2ccc(=O)[nH]n2)n1	-1	?	6	0.8	-20	0.3
CCCC(NCC(O)COc1ccc(-c2ccccc2)cc1)c1ccccc1 (configuration not stated)	-3	5.0%	0	0.6	4	-17
O=c1[nH]cncc1OCc1ccccc1	-7	3.2%	2	0.9	3	2.1
O=C(COC(=O)[C@H](Cc1ccccc1)N1C(=O)c2ccccc2C1=O)Nc1ccc2c(c1)OCO2	-20	1.4%	-25	1.4	5	-3.5
COc1ccc(N2CCN(Cc3cc(OC)c(O)c([N+](=O)[O-])c3)CC2)cc1	-13	3.3%	-1	0.0	-17	-3.1
CC(NC(=O)Nc1ccccc1)C(c1cccs1)N1CCN(c2ccccc2)CC1 (configuration not stated)	-3	0.5%	-4	-0.2	-6	-2.2
CCOc1ccc(S(=O)(=O)N2CCCC(C(=O)NCC3CCCO3)C2)cc1Cl (configuration not stated)	-21	6.9%	0	0.7	2	1.9
COc1cccc(S(=O)(=O)Nc2ccc3c(c2)OCCO3)c1	4	-0.8%	6	-0.4	1	0.3
CSc1nc(-c2ccccc2)nn1C(=O)c1ccco1	4	0.3%	1	-0.8	-9	0.1
Cc1ccc(Cn2c(/C=C/c3ccco3)nc3ccccc32)cc1	3	26%	4	7.9	-11	0.0
O=C(NCCSCc1ccco1)c1ccc(CN2CCOCC2)cc1	9	.	-2	-0.1	-18	-1.6
